NS1 function inh: inhibitors of influenza NS1 protein function | AID 2326 | Potency, µM (highest dose often 46.1 µM), for inactives: at the highest dose activity, positive = more growth | S. cerevisiae slowed by influenza A NS1, growth recovery by OD600 | actives 0.4% (n = 270,000); active means well fitted rising curve with a large enough effect; inconclusive means small, poorly fitted or top-dose-only effect; inactive means no such curve, though single readings can be large or run the other way; note: nearly all actives have a fitted effect of over 50% in size
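Compounds were scored for reversing the slow growth caused by influenza A NS1 in S. cerevisiae, measured by optical density at 600 nm. Assay medium contained 2% galactose at pH 6.0; NS1-free yeast of the same strain were the positive control.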
2A StopGo: FMDV 2A StopGo reporter, luciferase signal; Potency, µM (doses to about 57.9 µM), for inactives: at the top dose signal change, negative = less light; human cells with a luciferase reporter of 2A StopGo recoding; control for the full effect not named in the record; actives 1.2% (n = 410,000); active = well fitted falling curve with a large enough effect; inconclusive = small, poorly fitted or top-dose-only effect; inactive = no such curve, though single readings can be large or run the other way; tested in HEK293T cells; note: % is set by controls: 0 for no effect and ±100 for the full control effect; nearly all actives have a fitted effect of over 45% in size; luciferase light after 4 h
Cruzain noTriton: cruzain (T. cruzi) inhibition without detergent. purified cruzain, Z-FR-AMC fluorescence, no detergent. Potency, µM, inactives show max response, negative = inhibition, actives largely listed as inhibitors. actives 2.3% (n = 200,000). AID 1476;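 note: plate controls were enzyme without inhibitor for no effect and buffer without enzyme for full effect; nearly all actives have a fitted effect of over 40% in size; top concentration of the series not given in the record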
Target sequence (P25779 123-467 limits assumed): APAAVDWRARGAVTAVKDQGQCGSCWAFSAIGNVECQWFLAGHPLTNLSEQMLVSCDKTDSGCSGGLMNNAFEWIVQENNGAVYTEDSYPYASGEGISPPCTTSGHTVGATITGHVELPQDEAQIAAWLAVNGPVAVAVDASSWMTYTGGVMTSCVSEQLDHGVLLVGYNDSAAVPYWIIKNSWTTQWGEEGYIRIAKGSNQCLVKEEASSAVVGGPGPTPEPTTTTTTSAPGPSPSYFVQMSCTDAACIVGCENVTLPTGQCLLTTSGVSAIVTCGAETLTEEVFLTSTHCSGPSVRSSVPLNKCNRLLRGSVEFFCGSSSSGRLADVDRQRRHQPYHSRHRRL
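Purified cruzain at 1.5 nM, pre-incubated 15 min with compound at room temperature in 100 mM sodium acetate pH 5.5, 5 mM DTT, 0.00005% Triton X-100. Reaction started with 2 uM Z-FR-AMC; AMC fluorescence increase over 60 s gives rate.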
RE007 growth inh: less growth of the S. pombe RE007 Vpr strain | S. pombe RE007 Vpr strain, BacTiter-Glo ATP luminescence, 24 h; control for the full effect not named in the record | Potency, µM (series often up to 92.2 µM), for the others: at the highest dose activity change, negative = less growth | actives 0.21% (n = 360,000) | AID 651644; active = well fitted falling curve with a large enough effect; inconclusive = small, poorly fitted or top-dose-only effect; inactive = no such curve, though single readings can be large or run the other way;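 note: % is set by controls: 0 for no effect and ±100 for the full control effect; nearly all actives have a fitted effect of over 50% in size; the assay follows cell death caused by Vpr and the record does not say whether a fall means rescue or toxicity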
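Fission yeast RE007 carrying one integrated HIV-1 vpr copy, seeded at OD 0.01 in PMG+AL medium with 23 nL pinned compound. Grown 24 h at 30 degrees; viability read by BacTiter-Glo luminescence after 5 min.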
LASV entry inh: blocks Lassa virus binding to or entry into cells; actives 1.2% (n = 300,000); AID 540256; Potency, µM (top dose mostly 37.9 µM), for the others: top-dose activity change, negative = inhibition, hits mostly inhibitors; Lassa virus pseudotype entry inhibition, cell reporter; control for the full effect not named in the record; active means well fitted inhibition curve with a large enough effect; inconclusive means small, poorly fitted or top-dose-only effect, or effect the other way; inactive means flat fitted curve, though single readings scatter; tested in HEK293 cells; note: % is set by controls: 0 for no effect and ±100 for the full control effect; nearly all actives have a fitted effect of over 50% in size; luciferase read-out
SARS PLpro yeast: SARS-CoV PLP inhibition in yeast; S. cerevisiae expressing SARS-CoV PLpro, growth rescue; control for the full effect not named in the record; Potency, µM (doses to about 32.9 µM), for inactives: at the highest dose activity, positive = growth rescue; actives 0.19% (n = 330,000); active means well fitted rising curve with a large enough effect; inconclusive means small, poorly fitted or top-dose-only effect; inactive means no such curve, though single readings can be large or run the other way; note: 0% is about no effect; nearly all actives have a fitted effect of over 55% in size; growth read by luminescence after 48 h
Marburg entry inh: Marburg virus entry inhibition. Marburg virus pseudotyped entry inhibition, cell reporter; control for the full effect not named in the record; about a third of the inactives were read at about 46 µM. Potency, µM (highest dose often 37.8 µM), inactives show at the highest dose activity change, negative = inhibition, usual class: inhibitors. actives 1.8% (n = 300,000). AID 540276; active = well fitted inhibition curve with a large enough effect; inconclusive = small, poorly fitted or top-dose-only effect, or effect the other way; inactive = flat fitted curve, though single readings scatter; tested in HEK293 cells; about a fifth of its hits are not listed in these tables; note: % is set by controls: 0 for no effect and ±100 for the full control effect; luciferase read-out
Cruzain inh Det: inhibitors of Trypanosoma cruzi cruzain with detergent | purified cruzain, Z-FR-AMC fluorescence, 0.01% Triton | P25779 | Potency, µM, without a hit: max response, negative = inhibition, actives largely listed as inhibitors | actives 0.43% (n = 200,000);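 note: plate controls were neutral wells for no effect and buffer without enzyme for full effect; nearly all actives have a fitted effect of over 40% in size; top concentration of the series not given in the record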
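Read-out: AMC fluorescence (360 nm excitation, 450 nm emission), four reads over 2 min, first-to-third difference used. Conditions: cruzain 1.5 nM, Z-FR-AMC 2 uM, pH 5.5 acetate, 5 mM DTT, 0.01% Triton X-100.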
* hit, by the source's call; ? = inconclusive; / = no result given; & = joins results of further samples; [ ] = dose if it differs, or a comment. Unless noted, calls come from the whole dose curve; as a rule, active = well fitted curve in the direction sought with a large enough effect; inconclusive = small, poorly fitted or top-dose-only effect, or another doubt; inactive = no such curve, though single readings can be large; an effect the other way counts as inactive or inconclusive. Potency is the fitted concentration of half-maximal effect.

Every second line gives: 2A StopGo | SARS PLpro yeast | Cruzain noTriton | Marburg entry inh | LASV entry inh | NS1 function inh | RE007 growth inh | Cruzain inh Det
Cc1ccc(N2C(=O)C3C4C=CC(C4)C3C2=O)cc1C (stereo not given)
 : 13% | -3% | 5% | 25% | 16% | -4% | -1% | 3.0%
O=c1c2ccccc2c(C=Nc2ccc(S(=O)(=O)N3CCCCC3)cc2)c(O)n1-c1ccc(Cl)cn1
 : -8% | -4% | 7.9µM* | 13% | -9% | 7% | 9% | 4.0%
CC(=O)c1ccc(N2CCN(C(=O)C3CCC3)CC2)cc1
 : 38%[activator] | -8% | -13% | 4% | 1% | 0% | -2% | -9.2%
O=c1[nH]c(C2CCN(S(=O)(=O)c3ccccc3)CC2)nc2c1nnn2Cc1ccc2c(c1)OCCO2
 : -5% | 0% | / | / | / | 16% | -9% | /
O=c1c2ccccc2nc(-c2ccc([N+](=O)[O-])cc2)n1O
 : -23% | 8% | / | -17%[46.1 µM] | ? | / | ? | /
COc1cc(C(=O)NCc2nnc(SCC(=O)Nc3cc(C)cc(C)c3)o2)cc(OC)c1OC
 : -1% | 1% | ? | 0%[46.1 µM] | 2% | -4% | -4% | 1.1%
COc1ccccc1C1/C(=C(\O)c2ccc3c(c2)OCCO3)C(=O)C(=O)N1CCCN(C)C (stereo not given)
 : / | 5% | 4% | / | / | 3% | / | 0.7%
CCN1C(=O)/C(=C2/Sc3ccc(OC)cc3N2C)SC1=Nc1ccc(OC)cc1
 : 2% | -2% | / | 14%[14.2 µM] | ? | / | 3% | /
C/C(CCC(=O)OC[C@H]1O[C@H](C#Cc2ccccc2)C=C[C@@H]1Oc1ccc(C)cc1)=N\O[C@@H](C)CN1CCCCc2nc(C)c(C)cc21
 : / | -6% | 0% | ? | -26% | 0% | / | -4.1%
CCCCN1C(=S)NC[C@@H]1Cc1ccccc1
 : 3% | 8% | / | / | / | -3% | -8% | /
O=C(O)CCCC(=O)N1N=C(c2ccccc2)CC1c1ccc2c(c1)OCO2 (stereo not given)
 : -5% | 2% | / | 6% | 9% | ? | -21% | /
Cc1ccc(S(=O)(=O)NN2C(=O)/C(=C/c3ccc(C(=O)O)cc3)SC2=S)cc1
 : 6% | 1% | / | 18% | ? | 5% | -19% | /
Cc1cc(O)cc(O)c1C(=O)Cc1cscn1
 : -2% | 6% | -6% | 7%[46.1 µM] | -7% | ? | -3% | 4.6%
Cc1nnc(SCC2=C(C(=O)O)N3C(=O)C(NC(=O)Cn4nc(C)c(Cl)c4C)C3SC2)s1 (stereo not given)
 : 23% | -2% | / | 3%[46.1 µM] | 7%[46.1 µM] | / | 2% | /
CC(=O)Nc1ccc(N)cc1
 : 0% | -7% | -9% | / | / | / | -12% | 1.6%
CCN(CC)C(=O)c1ccc2c(c1)N(Cc1ccc(C(F)(F)F)cc1)C(=O)c1ccccc1S2
 : ? | / | ? | 0%[46.1 µM] | 0%[46.1 µM] | / | / | -17%
COc1cccc(NC(=O)N(CCCN2CCOCC2)C(C)c2cc3ccccc3o2)c1 (stereo not given)
 : -10% | 1%[6.58 µM] | -2% | 22% | -7% | 0% | 6% | 2.8%
CCN1C(=O)C2C(c3cccc(F)c3)NC(CC)(C(=O)OC)C2C1=O (stereo not given)
 : 11% | 9% | -2% | -3% | 9% | -4% | 15% | 3.0%
Cc1cc(C)c(/C=C/c2onc(C)c2S(=O)(=O)N2CCC(C(=O)NCC(C)c3ccccc3)CC2)c(C)c1 (stereo not given)
 : -16% | / | 4% | / | ? | / | / | -3.0%
Cc1ncsc1CCOC(=O)c1cccnc1
 : / | -4% | 14% | -3% | -5% | -4% | 29% | -0.5%
COc1cc(N2C(=O)C=CC2=O)c(OC)cc1Cl
 : 35µM* | -6% | / | ? | ? | -70% | 40µM* | /
O=C(N/N=C/c1ccc2c(c1)OCO2)c1ccc2ccccc2n1
 : 0% | -6% | / | ? | -6% | / | -4% | /
CCOC(=O)Cn1nc(/C=C/c2ccccc2)ccc1=O
 : -15% | -8% | -15% | 1%[46.1 µM] | -3% | 3% | -20% | -6.0%
CCCc1nnc(NC(=O)OCC)s1
 : 0% | 3% | / | -6%[46.1 µM] | -1% | -1% | -6% | /
CCC1(CC)C(=O)N=C2c3ccccc3C(=O)N21
 : -4% | 2% | -4% | ? | -1% | -6% | 2% | 7.4%
Oc1ccc2n[nH]nc2c1
 : 0% | ? | -12% | -6% | 6% | 27% | 5% | 0.6%
CCN(CC)C(=O)Oc1ccc2c(=O)c(-c3ccccc3)coc2c1
 : -2% | 1% | 1% | ? | 78%[14.3 µM] | -4% | 1% | -1.1%
CSc1ccccc1C(=O)NCCCn1ccnc1
 : -2% | -2% | / | ? | -23%[46.1 µM] | 11% | -3% | /
Fc1ccc(-c2cn3cc(Cc4ccccc4)sc3n2)cc1
 : 13µM* | / | 2% | ? | ? | / | / | -1.5%
CCOc1cc(N2CCOCC2)c(OCC)cc1NC(=O)c1oc2ccccc2c1C
 : -27% | -4% | / | 19%[46.1 µM] | -3% | / | 12% | /
O=C(O)CCCCCN1C(=O)C(=O)/C(=C(/O)c2ccccc2)C1c1ccccc1 (stereo not given)
 : -13% | -4% | 2% | 21% | -2% | -2% | -9% | -0.3%
Cc1ccc(N2CC(C(=O)Nc3cc(C)ccc3F)CC2=O)cc1 (stereo not given)
 : -9% | 3% | 1% | -29% | -14% | -5% | 5% | -2.7%
CCOC(=O)C1CCN(C(c2cc3c(C)ccc(C)c3[nH]c2=O)c2nnnn2C2CCCCC2)CC1 (stereo not given)
 : ? | 1% | 30% | -5%&-22% | -10% | -12% | -1% | -5.7%
CCC(NC(=O)CCc1c(C)c2cc3c4c(oc3cc2oc1=O)CCCC4)C(=O)O (stereo not given)
 : -1% | 0% | / | / | / | 5% | -9% | /
O=C(O)C1C2C=CC(C3CC23)C1C(=O)NCCc1ccccc1 (stereo not given)
 : 13% | 0% | -7% | 21% | ? | -8% | -12% | 3.7%
CC1=C(C(=O)Nc2ccccc2)C(c2ccncc2)C(C#N)=C(SCC(=O)NC(C)C)N1 (stereo not given)
 : 7% | 8% | -13% | ? | 19% | 1% | 0% | 3.6%
O=C(Nc1ccc2c(c1)OCO2)c1c(F)cccc1F
 : 68%[activator] | -8% | -7% | 1% | -13% | 13% | 6% | -0.5%
CN1C(=O)NC(=O)/C(=C\c2ccc([N+](=O)[O-])o2)C1=O
 : -24% | -3% | / | -15% | 2%[46.1 µM] | / | -10% | /
CCCCCCn1c(=O)[nH]c2nc3cc(N)ccc3nc2c1=O
 : -22% | 11% | 2% | ? | 0% | 2% | 7% | -11%
CCN(CC(=O)NCCCN1CCOCC1)S(=O)(=O)c1ccc(F)cc1
 : -12% | 1% | / | 1%[46.1 µM] | 1% | 1% | -8% | /

Arranged by SMILES length (ascending): some entries from above
Every second line gives: 2A StopGo | SARS PLpro yeast | Cruzain noTriton | Marburg entry inh | LASV entry inh | NS1 function inh | RE007 growth inh | Cruzain inh Det
CCCCCCn1c(=O)[nH]c2nc3cc(N)ccc3nc2c1=O
 : -22% | 11% | 2% | ? | 0% | 2% | 7% | -11%
COc1cc(C(=O)NCc2nnc(SCC(=O)Nc3cc(C)cc(C)c3)o2)cc(OC)c1OC
 : -1% | 1% | ? | 0%[46.1 µM] | 2% | -4% | -4% | 1.1%
C/C(CCC(=O)OC[C@H]1O[C@H](C#Cc2ccccc2)C=C[C@@H]1Oc1ccc(C)cc1)=N\O[C@@H](C)CN1CCCCc2nc(C)c(C)cc21
 : / | -6% | 0% | ? | -26% | 0% | / | -4.1%

Carrying on.
Every second line gives: 2A StopGo | SARS PLpro yeast | Cruzain noTriton | Marburg entry inh | LASV entry inh | NS1 function inh | RE007 growth inh | Cruzain inh Det
O=C(Cn1c(=O)n(CC2CS2)c2ccccc21)N1CCCCC1 (stereo not given)
 : -9% | -1% | / | ? | ? | / | 3% | /
O=[N+]([O-])c1ccc(/C([O-])=C(/C(=S)Nc2ccccc2F)[n+]2ccccc2)cc1
 : -7% | 0% | / | 0%[46.1 µM] | 2% | / | -3% | /
O=C(CCCN1C(=O)CCC1=O)Nc1ccccc1F
 : 10% | -6% | -5% | 18% | 1% | 1% | 5% | -6.2%
COc1ccc(-c2nnc3sc(COc4ccc(C)cc4)nn23)cc1
 : -3% | -14% | -4% | -1% | 13µM* | -125% | 28% | -6.0%
CCOC(=O)c1c(NC(=O)CC2SC(N)=NC2=O)sc(C)c1C (stereo not given)
 : 0% | -1% | / | / | / | 3% | 1% | /
COc1ccc(/C=C(/NC(=O)c2ccccc2)C(=O)NCC2CCCO2)cc1 (stereo not given)
 : 14% | 3% | / | 11%[46.1 µM] | -28%[46.1 µM] | -4% | 1% | /
CCc1cc(C(=O)Nc2ccccc2)cs1
 : 21% | -4% | -3% | -18% | ? | -73% | ? | 0.3%
COc1cccc(-c2c(C(=O)N/N=C/C3CC=CCC3)nnn2-c2nonc2N)c1 (stereo not given)
 : -16% | 10% | / | / | / | 25% | 4% | /
CCCCC/C(=N\NC(=O)Nc1ccccc1)c1ccccc1
 : -16% | 1% | / | ? | 12% | / | 6% | /
Cc1ccsc1C(=O)N1CCCC(N(C)Cc2ccccc2)C1 (stereo not given)
 : -4% | 0% | / | -28% | ? | 16% | -15% | /
O=C(Nc1ccc(S(=O)(=O)N2CCC(C(=O)NC3CCCCC3)CC2)cc1)c1ccco1
 : -22% | -2% | -4% | -8% | -8% | -12% | 6% | 3.5%
COc1cccc(CNC(=O)c2ccc(-c3nc(COc4ccccc4)c(C)o3)cc2)c1
 : -1% | / | 20% | / | 27%[46.1 µM] | / | / | -5.4%
N[C@@H](Cc1ccc(O)cc1)c1nnc([C@H](CC(=O)O)NC(=O)C2CCNCC2)o1
 : -12% | 1% | / | / | / | 1% | 10% | /
Cc1ccc2nc(NC(=O)CSc3nccn3Cc3ccc(F)cc3)sc2c1
 : ? | / | -15% | / | 19%[46.1 µM] | / | / | -5.8%
COc1ccc(-n2c3c(cc(C(=O)N4CCC(C)CC4)c2=O)C(=O)CC(C)(C)C3)cc1
 : -17% | 13% | 6% | / | / | 6% | -1% | 0.3%
